Vaccinia pol inh – vaccinia E9 polymerase processive synthesis inhibitors, primary screen, biochemical, absorbance | Vaccinia virus DNA polymerase (E9) processive complex | in vitro processive DNA synthesis, absorbance read-out; hits give low values; some inactives read as strong as hits | normalized absorbance, % (no concentration beside the values) | hit rate 0.94% among 46,000 | AID 493162, 2011;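 active = replicate mean up to 90% and picked by the depositor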;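 note: 100% = median of the test wells of a plate; 100 nL library stock went into each well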
Active calls of the source: *; & = joins results of further samples. Not all compounds are listed; the hit share may differ from the screen's.

SMILES	Vaccinia pol inh
CC(=O)N1CC(NC(Cc2cnc[nH]2)C(=O)O)C(c2ccc(N(C)C)cc2)=N1 (stereo unspecified)	100
Cc1[nH]c(=O)[nH]c(=O)c1S(=O)(=O)NCCOC12CC3CC(CC(C3)C1)C2	95
O=c1c(-c2ccccc2)coc2cc(O)ccc12	98
O=C(OCC(=O)N1CCC(Cc2ccccc2)CC1)c1n[nH]c2ccccc12	107
O=C(c1ccco1)N1CCN(C(=O)C2CCCc3c2[nH]c2ccc(Cl)cc32)CC1 (stereo unspecified)	100
Cc1[nH]c2ccccc2c1CC1C(=O)N(C)C(=O)N(C)C1=O	100
CCN(C(=O)c1cc2c(=O)[nH]c3ccc(C)cc3c2s1)c1ccccc1	96
C/C=C(/C)C(=O)O[C@H]1CC[C@@]2(C)[C@@H]3CC[C@H]4[C@]5(O)C[C@H](O)[C@@]6(O)[C@@H](CN7C[C@@H](C)CC[C@H]7[C@@]6(C)O)[C@]5(O)C[C@@]42O[C@]13O	100
Cn1c(=O)cc(OCCCC(=O)NCC2(c3ccccc3)CCCC2)c2ccccc21	98
CCC(C)NC(=O)C1CCN(S(=O)(=O)c2ccc3nc4c(c(C(=O)O)c3c2)CCCC4)CC1 (stereo unspecified)	104
CC(=O)N1CCN(C(=O)c2c(Cl)nc3sccn23)CC1	100
CC(C)OC(=O)c1cccc(NC(=O)c2ccc(Br)cc2)c1	100
Nc1c(C(=O)c2ccc(F)cc2)oc2ccccc12	114
C=CCSC1=C(C#N)C(c2ccccc2OCC)C(C#N)C(=O)N1 (stereo unspecified)	102
CC1CCN(S(=O)(=O)c2ccc3[nH]cc(C(=O)NCc4ccccc4Cl)c(=O)c3c2)CC1	102
Cc1csc(NC(=O)CCCN2C(=O)/C(=C\c3ccco3)SC2=S)n1	95
CCc1ccc(Nc2nc(-c3cc4ccccc4oc3=O)cs2)cc1	102
COc1cc(NC(=O)Cc2ccc(F)cc2)cc(S(=O)(=O)c2ccc(Cl)cc2)c1	100
N#Cc1cnn(-c2nc3ccccc3s2)c1N	81
O=C(CN1C(=O)c2ccccc2S1(=O)=O)NCc1ccccc1Cl	110
c1ccc2c(N3CCC4(CC3)OCCO4)nnc(Cc3ccncc3)c2c1	91
O=C(NC(Sc1ccncn1)C(=O)c1ccccc1)c1ccccc1 (stereo unspecified)	98
Brc1cccc(-c2nc3ccccc3[nH]2)c1	95
Cc1ccc(SCC(=O)c2cc(C)c(O)c(C)c2)cc1	100
O=C(O)CC1N=C(Nc2nc3ccccc3o2)NC1=O (stereo unspecified)	87
O=C(NCCCN1CCCC1=O)c1cc(-c2ccc(F)cc2)nc2ccccc12	71
O=C(Cc1nc2ccccc2[nH]1)N1CCOCC1	106
CC(C)Cc1c(O)nc(SCC(=O)NC(C)(C)C)[nH]c1=O	100
Cc1cc(C)c2c(-n3cccc3)c(C(=O)NCCCN3CCN(c4ccc(F)cc4)CC3)sc2n1	94
C=CCOc1cccc(C2C(C(=O)c3cccs3)=C(O)C(=O)N2CCN(C)C)c1 (stereo unspecified)	77
Cc1ccc(S(=O)(=O)N2CCCCC2)cc1C(=O)Oc1cccc2cccnc12	100
O=C(NC1CCCc2ccccc21)c1cnn(-c2ccccc2)c1-n1cccc1 (stereo unspecified)	102
COC(=O)c1ccccc1S(=O)(=O)/C(C#N)=C/Nc1nc(SC)nc(C2CC2)n1	91
COc1ccc(NC(=O)C(C)Oc2ccc3c(-c4ccccc4)cc(=O)oc3c2)cc1 (stereo unspecified)	88
O=C(Nc1ccc2c(c1)OCO2)c1cccs1	85
Cc1ccc(SC(C)C(=O)N2CCC(C(N)=O)CC2)cc1 (stereo unspecified)	90
CN(C)C(=O)C(CCN1CCC(O)(c2ccc(Cl)cc2)CC1)(c1ccccc1)c1ccccc1	96&102
O=C1c2ccccc2NC(c2cccc(F)c2)N1Cc1ccccc1 (stereo unspecified)	100
Cc1ccnc(NC(=O)Cn2ncc3c2-c2cc(C)ccc2OC3)c1	102
O=C(OCC1COc2ccccc2O1)c1cc(F)c(F)c(F)c1F (stereo unspecified)	103

The list goes on; it opens with the 2 that closed the last part.
SMILES	Vaccinia pol inh
Cc1ccnc(NC(=O)Cn2ncc3c2-c2cc(C)ccc2OC3)c1	102
O=C(OCC1COc2ccccc2O1)c1cc(F)c(F)c(F)c1F (stereo unspecified)	103
CC(=O)N(c1ccccc1)C1SC(=O)N(c2ccc(C)cc2)C1=O (stereo unspecified)	101
N#Cc1c(-c2ccc(Cl)cc2)[nH]c(SCc2ccccc2)nc1=S	73
O=C1/C(=C\c2ccccc2O)SC(=Nc2ccccc2)N1Cc1ccccc1	100
O=C(NCCO)c1cc2c(s1)CCC2	97
O=C1C2C3C=CC(C3)C2C(=O)N1CN1CCCCC1 (stereo unspecified)	100
O=S(=O)(Cc1ccc(Cl)cc1)C1CCCCC1O (stereo unspecified)	104
Cc1ccc(C(CC(=O)c2ccco2)SCc2ccco2)cc1 (stereo unspecified)	98
CCC(O)C12CC3CC(CC(C3)C1)C2 (stereo unspecified)	104
O=C(c1cccc(C(F)(F)F)c1)N1CCc2c([nH]c3ccccc23)C1C(F)(F)F (stereo unspecified)	100
CCOC(=O)c1cnc2c(OC)cccc2c1N1CCC2(CC1)OCCO2	95
O=C(O)c1ccc2c(c1)N(Cc1ccc(Cl)cc1)CCS2	72*
COc1cccc(NC(=O)COC(=O)Cc2ccc(F)cc2)c1	89
CCC(=O)OCC(=O)C1(OC(=O)CC)C(C)CC2C3CCC4=CC(=O)C=CC4(C)C3(Cl)C(O)CC21C (stereo unspecified)	99
NC(=O)CS(=O)(=O)c1nc2ccccc2n1Cc1ccccc1	100
COc1ccc(N=C2NC(=O)C(CC(=O)Nc3ccc(OC)cc3)S2)cc1 (stereo unspecified)	100
Nc1c(S(=O)(=O)c2ccccc2)sc2nc(-c3cccs3)cc(C(F)(F)F)c12	101
O=C(c1cccs1)C1C(=O)c2ccccc2C1=O	93
Cc1ccccc1CN1C(=O)/C(=C\c2ccc(C(=O)NCc3ccco3)cc2)Sc2ccccc21	97
O=C1NC(c2ccccc2Cl)Nc2sc3c(c21)CCCC3 (stereo unspecified)	101
COc1ccc(C2OC(=O)CC2C(=O)NCc2ccc(Cl)cc2)cc1OC (stereo unspecified)	105
Cc1ccc(CNC(=O)C2CCN(S(=O)(=O)c3c(C)nn(C)c3C)CC2)cc1	102
COC(=O)c1cc(S(=O)(=O)N2CCCCC2)c[nH]1	101
O=c1[nH]snc1N1CCCCC1	100
Cc1cc(C)nc(/N=C(/N)N2N=CCC2c2ccccc2)n1 (stereo unspecified)	99
CCn1cnc2cc(NCc3ccccn3)ccc21	106
CN1CCC(OC(=O)c2cc3cc(Br)ccc3oc2=O)CC1	95
COc1cc(C(=O)NC(=S)NC(N)=O)cc(OC)c1OC	95
Clc1ccc(-c2ncc3ccccn23)c(Cl)c1	101
Cc1[nH]c2ccccc2c1CCNC(=O)NC(=O)c1ccc(C(F)(F)F)cc1	100
Cc1cc(C)c2c(N)c(C(=O)N3CCC(Cc4ccccc4)CC3)sc2n1	94
COc1cccc2cc(C(=O)N3CCN(c4ccccc4)CC3)c(=O)oc12	92
CCOc1ccc(OCc2ccc(C(=O)NC(C)C)o2)cc1	100
CCOC(=O)c1c(C)c(C(=O)Nc2ccc(C)cc2)c(C)n1C	92
CN(C)C(=O)Oc1ccnc(SCc2c(F)cccc2Cl)n1	90
Cc1cccc(C)c1OCC(O)CN1CCN(c2ccccc2)CC1 (stereo unspecified)	100
CC(C)(C)NC(=O)Cc1ccc(Br)cc1	100
N#Cc1ccc(-c2ccc(Cl)cc2)nc1Cl	111
O=C(CSc1nnc(-c2ccccc2)o1)c1ccccc1	101
CCc1cccc(CC)c1N(COC)C(=O)Cn1c(Cc2ccccc2)nc2ccccc21	100
CCOC(=O)c1c(C)c(C#N)c(N(C(C)=O)C(C)=O)n1-c1ccc(C)cc1	68

Part of the list above in another layout:
structure,Vaccinia pol inh
COC(=O)c1cc(S(=O)(=O)N2CCCCC2)c[nH]1,101
O=c1[nH]snc1N1CCCCC1,100
Cc1cc(C)nc(/N=C(/N)N2N=CCC2c2ccccc2)n1 (stereo unspecified),99
CCn1cnc2cc(NCc3ccccn3)ccc21,106
CN1CCC(OC(=O)c2cc3cc(Br)ccc3oc2=O)CC1,95
COc1cc(C(=O)NC(=S)NC(N)=O)cc(OC)c1OC,95
Clc1ccc(-c2ncc3ccccn23)c(Cl)c1,101
Cc1[nH]c2ccccc2c1CCNC(=O)NC(=O)c1ccc(C(F)(F)F)cc1,100
Cc1cc(C)c2c(N)c(C(=O)N3CCC(Cc4ccccc4)CC3)sc2n1,94
COc1cccc2cc(C(=O)N3CCN(c4ccccc4)CC3)c(=O)oc12,92
CCOc1ccc(OCc2ccc(C(=O)NC(C)C)o2)cc1,100
CCOC(=O)c1c(C)c(C(=O)Nc2ccc(C)cc2)c(C)n1C,92
CN(C)C(=O)Oc1ccnc(SCc2c(F)cccc2Cl)n1,90
Cc1cccc(C)c1OCC(O)CN1CCN(c2ccccc2)CC1 (stereo unspecified),100
CC(C)(C)NC(=O)Cc1ccc(Br)cc1,100
N#Cc1ccc(-c2ccc(Cl)cc2)nc1Cl,111
O=C(CSc1nnc(-c2ccccc2)o1)c1ccccc1,101
CCc1cccc(CC)c1N(COC)C(=O)Cn1c(Cc2ccccc2)nc2ccccc21,100
CCOC(=O)c1c(C)c(C#N)c(N(C(C)=O)C(C)=O)n1-c1ccc(C)cc1,68

The results go on:
SMILES	Vaccinia pol inh
N#CC(C(=O)Nc1ccccc1)=C1CCCC1	101
O=C(NCc1cccc(C(F)(F)F)c1)c1cccs1	84
COc1cc2c(cc1NC(=O)CC(C)(C)C)oc1ccccc12	100
COc1ccc(CNC(=O)CCSCc2ccc(C)cc2)cc1	95
CC1CCN(C(=O)c2ccccc2NS(=O)(=O)c2ccc(F)cc2)CC1	109
Cc1cc(Oc2ccc(=O)n(C)n2)nc(Oc2ccc(=O)n(C)n2)n1	101
CCCOc1ccc(Oc2nc(N(C)C)nc(N(C)C)n2)nn1	100
CC(=O)N1c2ccccc2NC2=C(C(=O)CCC2)C1c1ccc(N(C)C)cc1 (stereo unspecified)	100
O=C(COC(=O)C1(c2ccccc2F)CCCC1)NC1CC1	98
NC(=O)c1nnc(Cc2ccc(Cl)cc2Cl)o1	99
CCOc1ccc2nc(NC(=O)c3ccccc3Cl)sc2c1	109
O=C(O)c1ccc2ncccc2c1	96
C(=Nc1ccccc1)c1ccc2c(c1)OCO2	110
O=C(N1CCN=C1c1ccccc1)N1c2ccccc2Sc2ccccc21	100
CNC(=O)c1ccccc1NC(=O)c1cccc(S(=O)(=O)N2CCC(C)CC2)c1	101
CC1CCN(CCNC(=O)C2CCCN(S(=O)(=O)c3cccc4nsnc34)C2)CC1 (stereo unspecified)	104
Cc1nnc(SCc2ccc(C(=O)c3ccc(F)cc3)cc2)[nH]c1=O	95
O=C(Nc1cc(Cl)cc(Cl)c1)Nc1cc(-c2ccccc2)[nH]n1	100
COC(=O)c1ccc(CN(Cc2ccc(C(=O)OC)o2)C(C)(C)C)o1	100
CN(Cc1ccccc1)C(=O)c1cccs1	100
O=C(c1cccs1)c1no[n+]([O-])c1C(=O)c1cccs1	97
NS(=O)(=O)c1ccc(NC(=O)C(Sc2ccccc2)c2ccccc2)cc1 (stereo unspecified)	102
CC(C)(C)C1=CC(=O)c2c(ccc(C(C)(C)C)c2O)C1=O	101
COc1ccc(OCC(=O)OCc2c(F)cccc2Cl)cc1	91
CCOC(=O)C1C(c2ccccc2)NC(=S)NC1(O)C(F)(F)F (stereo unspecified)	100
CCn1c(COc2ccccc2C(N)=O)nc2ccccc21	93
CCOc1ccc(CCNC(=O)C2CC(=O)OC2c2ccc(OC)c(OC)c2)cc1 (stereo unspecified)	82
CCCC(=O)Nc1nnc(SCC(=O)Nc2ccc(C)cc2C)s1	102
O=C(c1ccc(-c2nc3ccccc3s2)s1)N1CCCCC1	118
O=C(Nc1nc2ccccc2s1)C1CC(=O)N(c2ccccc2)C1 (stereo unspecified)	94
C(=N\n1cnnc1)/c1cccs1	101
COc1ccc(CCNC(=O)c2ccc(C3SCC(=O)N3Cc3ccccc3)cc2)cc1OC (stereo unspecified)	100
O=C(CCCc1ccccc1)NCCc1cn2ccccc2n1	97
O=C(NC1CCCc2ccccc21)C1c2ccccc2Oc2ccccc21 (stereo unspecified)	100
Clc1ccc(CN2COc3ccc(Cl)cc3C2)cc1	100
CCN(C(=O)c1cc2cc(Br)cc(OC)c2oc1=O)C1CCCCC1	100
CCOc1ccccc1NC(=O)CSc1ccc(-c2cccs2)nn1	103
COc1ccc(-c2noc(CC(=O)N(C)Cc3ccccc3)n2)cc1	104
c1ccc(CSCc2cn3ccccc3n2)cc1	98
COc1ccc(-c2noc(-c3cc4ccccc4oc3=Nc3ccc(NC(C)=O)cc3)n2)cc1	100
CC(Oc1ccccc1)C(=O)NCCc1ccc(S(N)(=O)=O)cc1 (stereo unspecified)	99
NC(=O)C1CCN(C(=O)c2c(F)cccc2Cl)CC1	103
CCc1ccc(N(CC)C(=O)c2cn(CC)c(=O)c3cc(OC)c(OC)cc23)cc1	90
C=CCN1C(=O)/C(=C\c2ccc(O)c(Br)c2)C(=O)NC1=S	100
O=S1(=O)c2cccc3cccc(c23)N1Cc1cccc(C(F)(F)F)c1	100
C=CCc1ccccc1OCc1nc2ccccc2[nH]1	99
O=S(N1CCCCCC1)C12CC3CC(CC(C3)C1)C2 (stereo unspecified)	98
COC(=O)c1c(NC(=O)c2ccc(OC)cc2)sc2c1CCN(C)C2	92
CC(=O)OC(C(=O)N1CCN(C(c2ccccc2)c2ccccc2)CC1)c1ccccc1 (stereo unspecified)	100
CC(=O)Oc1ccc(C)cc1-n1nc2ccccc2n1	100
O=C(O)/C=C/C(=O)NN1C(=O)c2ccccc2C1=O	100

Bioassay records from PubChem.
